Screening data as filed in PubChem.
VDR inh = vitamin D3 receptor (human) inhibition; VDR-SRC2-3 peptide fluorescence polarization, 2 h; Potency, µM, without a hit: max response, negative = inhibition, actives largely listed as inhibitors; P11473; AID 504847; 0.93% of 400,000 active; active = well fitted inhibition curve with a large enough effect; inconclusive = small, poorly fitted or top-dose-only effect, or another doubt; inactive = no such curve, though single readings can be large or run the other way; note: series mostly up to about 120 µM
Target sequence (P11473 whole entry, looked up): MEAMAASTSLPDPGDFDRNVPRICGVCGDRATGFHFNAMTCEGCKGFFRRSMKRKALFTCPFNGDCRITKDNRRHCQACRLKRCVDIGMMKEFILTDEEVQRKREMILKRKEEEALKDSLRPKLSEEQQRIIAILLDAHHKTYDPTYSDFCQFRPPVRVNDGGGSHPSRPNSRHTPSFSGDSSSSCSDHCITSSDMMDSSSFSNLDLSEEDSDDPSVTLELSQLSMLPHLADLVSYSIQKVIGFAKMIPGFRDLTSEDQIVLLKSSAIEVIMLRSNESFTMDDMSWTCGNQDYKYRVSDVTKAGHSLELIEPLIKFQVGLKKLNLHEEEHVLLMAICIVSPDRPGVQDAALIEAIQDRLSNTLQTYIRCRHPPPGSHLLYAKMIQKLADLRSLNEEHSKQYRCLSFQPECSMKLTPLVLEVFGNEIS
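FP read-out; VDR + SRC2-3 coactivator peptide; 23 nl compound by pintool; 2 h RT incubation; reagents held at 4 deg C, protected from light.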
* marks the source's active call; other numbers are inactive results; & = joins results of further samples. % is set by controls: 0 for no effect and ±100 for the full control effect; potency is the fitted concentration of half-maximal effect. The list is partial; count on the stated rates, not on these rows.

How did CCCN1Cc2cccc(C(=O)Nc3ccc4c(c3)OCCO4)c2C1=O do in these assays?
VDR inh: -2%

Results for CCOC(=O)N1CCN(CC(O)c2ccc3cc[nH]c3c2)CC1 (stereo unspecified) ?
VDR inh: 2%

What do the screens show for `O=S(=O)(c1ccc(NC(=S)NC2CCCC2)cc1)N1CCCC1`?
VDR inh: inconclusive

Results for COc1cccc(NC(=O)CN(C)C(=O)CC2CC3CCC2C3)c1 (stereo unspecified) ?
VDR inh: -22%

How did COc1ccc(NC(=O)CSc2nnc(CCC(=O)O)c(=O)n2N)cc1 do in these assays?
VDR inh: -12%

How did O=C(NCc1ccncc1)c1cc(C(=O)C2CC2)c[nH]1 do in these assays?
VDR inh: -21%

Results for COc1ccc2oc(=Nc3ccccc3)c(-c3nc4ccccc4[nH]3)cc2c1 ?
VDR inh: -3%

How did C/C(=N/Nc1nc(C)cc(C)n1)c1ccc(Br)cc1 do in these assays?
VDR inh: -4%

What do the screens show for `Nc1nn2cc(-c3ccc(Br)cc3)nc2c2ccccc12`?
VDR inh: 11%

What do the screens show for `COC(=O)c1c(C(=O)OC)c2cc(C)ccn2c1Cl`?
VDR inh: 17%

2 entries drawn at random from the list so far:
How did CCCN1Cc2cccc(C(=O)Nc3ccc4c(c3)OCCO4)c2C1=O do in these assays?
VDR inh: -2%

What do the screens show for `Nc1nn2cc(-c3ccc(Br)cc3)nc2c2ccccc12`?
VDR inh: 11%

The listing continues.
Results for CCOC(=O)C1CCN(C(=O)Cn2ncc3c([nH]c4ccccc43)c2=O)CC1 ?
VDR inh: 6%&-2%

Results for CC1CCCCC1NC(=O)CSc1nnc(CN2CCOCC2)n1C (stereo unspecified) ?
VDR inh: -13%

What do the screens show for `COc1ccc2cc(S(=O)(=O)N3CCCCC3)ccc2c1S(=O)(=O)N1CCCCC1`?
VDR inh: 21%

Results for CCCOc1ccccc1C1CC(=O)Nc2cc3c(cc21)OCCO3 (stereo unspecified) ?
VDR inh: -7%

How did CC1(C)CC(=O)C=C(Nc2ccc(F)c(Cl)c2)C1 do in these assays?
VDR inh: 15%

How did N#Cc1cc(Oc2ccc3ccccc3c2)c(-n2nnc3ccccc32)cc1C#N do in these assays?
VDR inh: 4%

What do the screens show for `C=CCn1cccc(C(=O)Nc2ccc(SC)cc2)c1=O`?
VDR inh: 13%

Results for O=c1c2c(nc3n1CCCCC3)sc1c(O)cccc12 ?
VDR inh: -10%

Results for CCOc1ccc(NC(=O)CCN2CCN(c3ccccc3OC)CC2)cc1 ?
VDR inh: -7%

How did O=[N+]([O-])c1ccc(N/N=C/c2cccc(O)c2O)c(S(=O)(=O)N2CCOCC2)c1 do in these assays?
VDR inh: 11%

The final 2 compounds of the part before come first, to join the parts:
Results for CCOc1ccc(NC(=O)CCN2CCN(c3ccccc3OC)CC2)cc1 ?
VDR inh: -7%

How did O=[N+]([O-])c1ccc(N/N=C/c2cccc(O)c2O)c(S(=O)(=O)N2CCOCC2)c1 do in these assays?
VDR inh: 11%

How did C/C(CC(C)C)=N\Oc1nc(C)cc(C)n1 do in these assays?
VDR inh: -14%

How did CCN(CC)CCCN1C=C2C(=O)C(C)(OC(=O)CCC(=O)OC)C(=O)C(Br)=C2C=C1c1ccc(OC)cc1 (stereo unspecified) do in these assays?
VDR inh: inconclusive

Results for O=c1c(-c2ccc(Br)cc2)[n+]([O-])c2ccccc2n1OCc1ccccn1 ?
VDR inh: -17%

Results for CNc1nc(N(C)C)nc(N(C)C)n1 ?
VDR inh: inconclusive

What do the screens show for `Cc1nnc(SCC(=O)N2CCCC2)n(N)c1=O`?
VDR inh: -9%

What do the screens show for `C=C(C)[C@H]1CC=C(C)C(=O)C1`?
VDR inh: -5%&4%

How did COc1cc(NC(=S)NCCc2ccccc2)c(OC)cc1NC(=O)CC(C)C do in these assays?
VDR inh: -21%

Results for O=C(c1cc(-c2ccco2)on1)N1CCc2ccccc2C1 ?
VDR inh: -2%

How did Cc1ccc2cccnc2c1N do in these assays?
VDR inh: -12%

Results for N#Cc1ccc(NC2c3ccccc3CC2O)cc1 (stereo unspecified) ?
VDR inh: 3%

What do the screens show for `NC(=O)c1cc2cc(Cl)ccc2oc1=O`?
VDR inh: 19%

How did CCc1ccc(CN2CCN(S(=O)(=O)Cc3ccccc3)CC2)cc1 do in these assays?
VDR inh: -6%

How did O=S(=O)(NCCOc1ccccc1F)c1cccc(Br)c1 do in these assays?
VDR inh: 1%

Results for O=C(O)c1ncn(Cc2ccccc2)c1C(=O)O ?
VDR inh: 0%

Results for Cc1oc(C)c2c(=O)ccc3c(c12)OC(N)=C(C#N)C3c1ccccc1Cl (stereo unspecified) ?
VDR inh: -17%

Results for C=CCn1c2ccccc2c2nnc(SCN3C(=O)c4ccccc4C3=O)nc21 ?
VDR inh: -1%

What do the screens show for `CNS(=O)(=O)c1cccc(C(=O)OCC(=O)N(Cc2ccccc2)C(C)(C)C)c1`?
VDR inh: 6%

What do the screens show for `CN(C)CCCN1C(=O)C(=O)/C(=C(/O)c2ccncc2)C1c1cccnc1` (stereo unspecified)?
VDR inh: -7%

Results for COc1ccc(CN2CCc3ccc(NC(=O)CCc4ccccc4OC)cc3C2)c(O)c1 ?
VDR inh: 0%

What do the screens show for `O=C(CCCc1cccs1)NCCc1c[nH]c2ccccc12`?
VDR inh: 0%

What do the screens show for `COc1ccc(-n2nc(C(=O)NCC(=O)Nc3ccccn3)c3ccccc3c2=O)cc1Cl`?
VDR inh: 2%

How did O=C(NCC1CCCO1)c1ccccc1NS(=O)(=O)c1cccs1 (stereo unspecified) do in these assays?
VDR inh: -10%

Results for CCOC(=O)Cc1cc(=O)[nH]c(/N=C(/NC(=O)c2ccccc2)Nc2ccccc2C(F)(F)F)n1 ?
VDR inh: 9%

How did CCn1cc(C(=O)NCCCN2CC(C)CC(C)C2)c(=O)c2cc(S(=O)(=O)N(C)C)ccc21 (stereo unspecified) do in these assays?
VDR inh: -14%

How did CC(=O)N1N=C(c2cccc(O)c2)CC1c1cccs1 (stereo unspecified) do in these assays?
VDR inh: -5%

What do the screens show for `COc1ccc(NC(=O)C2CCN(S(=O)(=O)c3cccs3)CC2)cc1OC`?
VDR inh: 8%

Results for CC(C)c1ccc(N(C(=O)c2snc(C(N)=O)c2N)C(C(=O)NCC2CCCO2)c2ccc(N(C)C)cc2)cc1 (stereo unspecified) ?
VDR inh: 3%

Results for COc1ccccc1CNS(=O)(=O)c1ccc(C)cc1 ?
VDR inh: -7%

Results for CCN(C(=O)CSc1nc2n[nH]c(C)c2c(=N)n1-c1ccc(Cl)c(C)c1)c1cccc(C)c1 ?
VDR inh: -1%

How did CCc1cc2c(=O)c(-c3nc4ccccc4[nH]3)coc2c(CN2CCCCC2C)c1O (stereo unspecified) do in these assays?
VDR inh: -6%

Results for COc1ccc(CNc2ncncc2-c2cccnc2)c(OC)c1 ?
VDR inh: -10%

Results for CNc1ccnc(-c2ccccc2C(F)(F)F)n1 ?
VDR inh: 8%

What do the screens show for `Cc1ccc(Cn2c(=N)c(S(=O)(=O)c3ccc(C)cc3)cc3c(=O)n4ccccc4nc32)cc1`?
VDR inh: -20%

How did CCN1C(=O)CC(Sc2ccccc2N)C1=O (stereo unspecified) do in these assays?
VDR inh: 24%

How did CC(C)(C)Cc1nnc(NS(C)(=O)=O)s1 do in these assays?
VDR inh: -6%

Results for O=C(CC1C(=O)NCCN1CCCc1ccccc1)NCCc1ccccc1F (stereo unspecified) ?
VDR inh: -18%

Results for COc1ccc2c(c1)C(=O)CC(c1ccc(OC)c(OC)c1)O2 (stereo unspecified) ?
VDR inh: -11%

How did CC(C)CC(=O)Nc1c2c(nn1-c1ccc([N+](=O)[O-])cc1)CS(=O)(=O)C2 do in these assays?
VDR inh: 10%

How did OC(COc1cccc2ccccc12)CN1CCN(c2ccccc2Cl)CC1 (stereo unspecified) do in these assays?
VDR inh: 5%

What do the screens show for `CN1CCN(c2ccc(S(=O)(=O)N3CCCCC3)cc2NC(=O)c2ccc(C#N)cc2)CC1`?
VDR inh: -23%

How did CC(CN1CCCC1)OC(=O)c1ccccc1Cl (stereo unspecified) do in these assays?
VDR inh: 0%

What do the screens show for `Cc1cc(CNC(=O)C(C)n2cc([N+](=O)[O-])cn2)c2ccccc2n1` (stereo unspecified)?
VDR inh: inconclusive

What do the screens show for `COc1ccc(C(=O)NC(=S)NCc2ccc(-c3nc4ccccc4o3)cc2)cc1OC`?
VDR inh: -6%

How did COc1cc(/C=C/C(=O)OC(C)C(=O)c2ccccc2)cc(OC)c1OC (stereo unspecified) do in these assays?
VDR inh: -3%

How did S=C(NCCCc1cnc[nH]1)NCCCN(Cc1ccc(Cl)cc1)c1ccc(-c2ccccc2)cn1 do in these assays?
VDR inh: 3%

What do the screens show for `CC(=O)Nc1cc2c3ccccc3ccc2c2ccccc12`?
VDR inh: -13%

What do the screens show for `CCC(C)(C)C(=O)Nc1cccc(Cl)c1C`?
VDR inh: 6%

What do the screens show for `O=c1[nH]c(=O)n(Cc2ccco2)c2c1C(C(F)(F)F)(C(F)(F)F)N=C(CCC1CCCCC1)N2`?
VDR inh: 26%

How did Cc1nc2sc(C(c3cccs3)N3CCC(C(N)=O)CC3)c(O)n2n1 (stereo unspecified) do in these assays?
VDR inh: -10%

How did Cc1ccccc1Nc1nc(N)nc(COC(=O)CCNS(=O)(=O)c2ccccc2)n1 do in these assays?
VDR inh: 16%

What do the screens show for `Cc1cc(C(=O)COC(=O)c2ccccc2NCCO)c(C)n1CC1CCCO1` (stereo unspecified)?
VDR inh: 13%

What do the screens show for `CCN(c1ccc(NC(=O)CCNC(=O)c2ccco2)cc1)C(C)C`?
VDR inh: -2%

How did CCn1c2ccccc2c2nc3cc(C(=O)O)ccc3nc21 do in these assays?
VDR inh: -12%

What do the screens show for `COc1ccc(/C=C(\C#N)C(=O)NCC(c2ccc(F)cc2)N2CCOCC2)cc1` (stereo unspecified)?
VDR inh: -10%

How did CN(C)CC(C)(C)CNC(=S)Nc1cc(S(=O)(=O)N2CCOCC2)ccc1Cl do in these assays?
VDR inh: 1%

Results for CCOc1ccc(C(=O)NC(=S)NCc2cccnc2)cc1[N+](=O)[O-] ?
VDR inh: 5%

How did CCOC(=O)c1c(S(=O)(=O)N2CCCC(C)C2)c(C)n(C)c1C (stereo unspecified) do in these assays?
VDR inh: -6%

Results for CC(=O)n1c(=O)c2ccccc2c(=O)n1-c1ccccc1 ?
VDR inh: inconclusive

How did CC(NC(=O)CC1Nc2ccccc2NC1=O)c1ccccc1 (stereo unspecified) do in these assays?
VDR inh: 12%

How did Cc1ccnc(NC(=O)c2ccc3c(c2)S(=O)(=O)c2ccccc2C3=O)c1 do in these assays?
VDR inh: -7%

How did COCCOc1cc(-n2ccnc2SC)c(Cl)cc1Cl do in these assays?
VDR inh: -6%

What do the screens show for `Cc1ccc(-c2cc(C(=O)N3CCCc4ccccc43)c3ccccc3n2)cc1`?
VDR inh: 5%

How did Cc1ccc(-c2nc(CS(=O)(=O)CC(=O)Nc3ccc(Br)cc3F)c(C)o2)cc1 do in these assays?
VDR inh: -5%

Results for NC1=NC(=O)/C(=C/c2ccccc2OCC(=O)Nc2ccc(F)cc2)S1 ?
VDR inh: 6%

Results for CCOc1ccccc1NC(=O)COC(=O)CNS(=O)(=O)c1ccc(C)cc1 ?
VDR inh: -5%

How did O=S(=O)(c1ccc(Br)cc1)c1nc(-c2ccco2)oc1SCc1ccccc1F do in these assays?
VDR inh: 9%

How did COc1ccc2c(c1OC)C(=O)N(c1ccc(O)cc1)C2=O do in these assays?
VDR inh: 7%

How did COc1ccccc1NC(=O)c1ccc(NC(=O)CSc2ncccn2)cc1 do in these assays?
VDR inh: 1%

Results for Cc1ccc(Cl)cc1N1CCN(c2nc3ccc(C(=O)c4ccccc4)cc3n3cnnc23)CC1 ?
VDR inh: -6%

Results for C[C@@H]1ON(C)[C@H]2C[C@H]3c4cc(-c5cccc(F)c5)ccc4CCN3C(=O)[C@@H]12 ?
VDR inh: 12%

Results for CN1CCN(CC(=O)N2c3ccccc3C(C)(c3ccc(Cl)cc3)CC2(C)C)CC1 (stereo unspecified) ?
VDR inh: -4%

How did Cc1ccc(SCCNC(=O)c2ccc(CN3CCOCC3)cc2)cc1 do in these assays?
VDR inh: 21%

Results for COc1ccc(CN2CCN(C(=O)c3ccco3)CC2)c(OC)c1OC ?
VDR inh: -6%

How did O=Cc1ccc(OCc2cccc(C(F)(F)F)c2)cc1O do in these assays?
VDR inh: 6%

What do the screens show for `O=C(CCNS(=O)(=O)c1cccs1)N1CCCCCC1`?
VDR inh: 3%

Results for CCN(CC(=O)NCc1ccc(Cl)cc1)C(=O)CSc1ccccc1 ?
VDR inh: -20%

How did O=C(O)CNCC1COc2ccccc2O1 (stereo unspecified) do in these assays?
VDR inh: 9%

How did COc1cc2[nH]c(C(=O)NCc3ccccc3)cc2c(OC)c1OC do in these assays?
VDR inh: -5%

In the list so far, 6 have a furan ring, fused or not.
Results for O=C(c1cc(-c2ccco2)on1)N1CCc2ccccc2C1 ?
VDR inh: -2%

Results for Cc1oc(C)c2c(=O)ccc3c(c12)OC(N)=C(C#N)C3c1ccccc1Cl (stereo unspecified) ?
VDR inh: -17%

What do the screens show for `O=c1[nH]c(=O)n(Cc2ccco2)c2c1C(C(F)(F)F)(C(F)(F)F)N=C(CCC1CCCCC1)N2`?
VDR inh: 26%

What do the screens show for `CCN(c1ccc(NC(=O)CCNC(=O)c2ccco2)cc1)C(C)C`?
VDR inh: -2%

How did O=S(=O)(c1ccc(Br)cc1)c1nc(-c2ccco2)oc1SCc1ccccc1F do in these assays?
VDR inh: 9%

Results for COc1ccc(CN2CCN(C(=O)c3ccco3)CC2)c(OC)c1OC ?
VDR inh: -6%
